# Screening results deposited in PubChem BioAssay by several laboratories.
# HNF4A DNA FP: change in binding of human HNF4 alpha to DNA; HNF4a-FITC DNA binding, fluorescence polarization, 1 h; activity change, % at 10 µM; 360,000 tested, 0.3% active; P41235; in the data active = activity change above about 30%, passing the limit was not always enough;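 note: controls were the assay level and a saturating level of protein; the project sought stronger binding though the title names inhibitors; some compounds called inactive have numbers as strong as hits; positive values seem to mean higher polarization but the record does not say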
# FGF22 binding: FGF22 (human) thermal shift binding. Q9HCT0. recombinant FGF22 thermal shift, SYPRO orange fluorescence; percent of sucrose octasulfate shift, DMSO zero. calls only at 9.99 µM. 340,000 tested, 1.5% active. AID 651658;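 active = melting point raised past a set limit in the mean and every replicate; three in four hits are not shown here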
# Target sequence (Q9HCT0 whole entry, looked up): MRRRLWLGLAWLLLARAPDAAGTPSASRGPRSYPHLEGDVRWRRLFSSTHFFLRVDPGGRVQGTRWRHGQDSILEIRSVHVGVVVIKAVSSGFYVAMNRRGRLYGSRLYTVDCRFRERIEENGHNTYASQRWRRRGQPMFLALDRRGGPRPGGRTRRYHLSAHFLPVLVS
# ALR H2O2 inh: inhibitors of human sulfhydryl oxidase ALR | P55789 | 290,000 tested, 3.8% active | purified ALR, DTT oxidation, H2O2 HRP-luminol luminescence | inhibition, % (concentration not given with the values);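 active = mean and each replicate at 75% or more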;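 note: stock transfer was 7.5 nL into about 7.5 µL; 0% = neutral wells and 100% = wells with inactivated enzyme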
# Target sequence (P55789 whole entry, looked up): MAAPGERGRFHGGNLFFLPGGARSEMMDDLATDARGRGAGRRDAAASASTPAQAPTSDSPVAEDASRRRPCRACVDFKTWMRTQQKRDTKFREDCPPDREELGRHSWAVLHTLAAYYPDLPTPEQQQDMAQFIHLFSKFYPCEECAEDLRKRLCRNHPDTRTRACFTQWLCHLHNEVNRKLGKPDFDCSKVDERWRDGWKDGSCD
# E coli growth: E. coli growth inhibition | Escherichia coli growth, OD600, 23 h; stronger effect = lower value | OD600 absorbance (concentration not given with the values) | 330,000 tested, 0.21% active | AID 1053175;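 active = OD600 absorbance below the run mean of sample wells minus 3.6 SD, in any replicate, cut at about 0.56 in these data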;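 note: stock transfer was 300 nL into about 60 µL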
# LANA-H2A inh: blocks KSHV LANA binding to histone H2A/H2B; cell-free LANA-H2A/H2B peptide, fluorescence polarization; Q9QR71; inhibition, % (concentration not given with the values); AID 2629; 320,000 tested, 0.6% active; in the data active = inhibition mostly above about 10%, no sharp cut-off; inactive = mostly below about 6.7%;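 note: stock transfer was 7.5 nL into about 10 µL; 0% = median of vehicle wells and 100% = median of positive control wells; one replicate is shown; the record names a cut of 25% in any replicate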
# Beta2AR agonist: activates human beta-2 adrenergic receptor causing internalization; 340,000 tested, 0.43% active; AID 504454; P07550; Am2.2-beta2AR cells, FAP receptor internalization, flow cytometry; reference of the scale not given here; response, % (no concentration beside the values);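 active = response above a set limit, near 3 SD of response in nonfluorescent compounds, cut at about 42% in these data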;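 note: stock transfer was 100 nL into about 11 µL; a reference agonist was the positive control; negative values mostly stem from fluorescent compounds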
# Target sequence (P07550 whole entry, looked up): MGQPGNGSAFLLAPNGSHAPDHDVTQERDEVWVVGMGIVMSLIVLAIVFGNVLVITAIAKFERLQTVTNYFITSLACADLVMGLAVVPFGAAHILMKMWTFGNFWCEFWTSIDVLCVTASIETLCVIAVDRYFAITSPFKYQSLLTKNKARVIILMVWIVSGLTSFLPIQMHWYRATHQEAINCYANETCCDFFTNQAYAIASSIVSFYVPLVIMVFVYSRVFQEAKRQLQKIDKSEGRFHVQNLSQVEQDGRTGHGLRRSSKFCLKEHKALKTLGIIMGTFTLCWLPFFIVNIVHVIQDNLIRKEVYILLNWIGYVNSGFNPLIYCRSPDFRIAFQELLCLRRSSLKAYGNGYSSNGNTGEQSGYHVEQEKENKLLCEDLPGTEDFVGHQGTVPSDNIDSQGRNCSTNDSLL
# UCH37 DUB inh: blocks the human deubiquitinase UCH37 | AID 588478 | purified proteasome/UCH37, Ub-AMC cleavage fluorescence | inhibition, % (test concentration not listed) | Q9Y5K5 | 330,000 tested, 0.33% active;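 active = mean of two replicates above 20%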;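 note: 0% = compound-free wells with enzyme and 100% = wells lacking proteasome; stock transfer was 100 nL into about 20 µL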
#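 Schedule: 30 min plus 25 min, room temperature / Material: human UCH37 within purified proteasomes / Technique: AMC fluorescence intensity at 355/460 nm / Buffer or medium: pH 7.4 Tris-HCl (50 mM) with ovalbumin, ATP-MgCl2, DTT / Controls: wells without proteasome as full block, compound-free enzyme plus substrate as uninhibited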
# Starred values were filed as active, the others as inactive; i = inactive; nt = no result given. An excerpt; count on the stated rates, not on these rows.
SMILES,HNF4A DNA FP,FGF22 binding,ALR H2O2 inh,E coli growth,LANA-H2A inh,Beta2AR agonist,UCH37 DUB inh
CSc1ccc(OC2CCCCC2NS(=O)(=O)c2ccc(Cl)cc2)cc1 (centres undefined),-10,i,-2,0.71,-4.0,1,4.8
N#C/C(=C(/O)c1ccc([N+](=O)[O-])s1)c1nc2ccccc2[nH]1,1.4,i,-11,0.68,-1.3,16,5.6
O=[N+]([O-])c1cccc(NC(=S)Nc2nc(-c3ccccc3Cl)cs2)c1,1.5,i,-3,0.76,5.6,27,3.8
O=C(Nc1ccc(Br)cc1Br)c1cccc2c1C(=O)N(C1CCCCC1)C2,1.6,i,0,0.66,0.8,-8,5.0
Cc1nc(NC(=O)COc2ccccc2)sc1C(=O)Nc1ccccc1,1.9,nt,-11,0.67,3.0,-2,1.4
C1CC1Cc1noc(CN2CCN(C3C4CC5CC(C4)CC3C5)CC2)n1 (centres undefined),-4.5,i,-2,0.71,12,3,4.2
O=C1c2ccccc2COc2ccc(O)cc21,-1.1,nt,65,0.68,3.4,3,6.4
COc1ccc(NC(=S)N2CCN(S(C)(=O)=O)CC2)cc1,3.9,nt,-26,0.63,-3.6,-1,-0.8
O=C(Nc1ccc2c(c1)CCC2)Nc1ccccc1Cl,-0.2,i,-8,0.71,5.6,5,0.5
COC1(C2=NCCN2)COc2ccccc2O1 (centres undefined),-3.4,i,nt,0.67,1.4,8,23*
CCc1sc(C(=O)Nc2cccc(C(C)=O)c2)cc1C,-4.3,nt,-1,0.67,-3.5,-4,1.4
Cc1cccc(N2CCc3c2nc2ccc(Br)cc2c3N)c1,2.8,i,-18,0.59,-0.4,-1,-23
CCOC(=O)c1c(NC(=O)COC(=O)c2cc(OC)c(OC)cc2[N+](=O)[O-])sc(C)c1C,-3.0,i,-10,0.72,-5.8,5,-0.2
Cc1ccc(NC(=O)C2CCCN(S(=O)(=O)c3ccc4[nH]c(=O)ccc4c3)C2)nc1 (centres undefined),-3.0,i,0,0.68,3.4,5,5.6
C=CCN1C(=O)C(CC(=O)Nc2ccccc2F)S/C1=N\c1nccs1 (centres undefined),1.4,i,5,nt,-1.8,-3,nt
COc1cc(-c2nc3cnccn3c2Nc2ccc3c(c2)OCCO3)ccc1O,-1.8,nt,99*,0.7,-3.4,4,-9.6
CC1Cc2nc(SCC(=O)c3ccccc3)n(Cc3ccccc3)c(=O)c2S1 (centres undefined),-1.0,i,50,0.69,-6.8,-3,2.2
COc1ccc(Cc2nnc(NC(=O)c3ccccc3Cl)s2)cc1OC,0.6,i,-5,0.69,-8.8,-1,3.6
COC(=O)c1cn(NC(=O)c2cc(OC)cc(OC)c2)c(=O)c2ccccc12,1.5,nt,1,0.68,0.2,0,-1.2
COc1cccc(C(=O)Nc2nnc(S(=O)(=O)N3CCCC3)s2)c1,2.7,i,-5,0.69,-5.1,3,3.1
COCCN(C(=O)COC(=O)C1(C)CC1(Cl)Cl)c1c(N)n(Cc2ccccc2)c(=O)[nH]c1=O (centres undefined),-2.7,i,-3,0.72,-3.7,2,4.2
Cc1cc(C)cc(NC(=O)CSc2ccc(-c3ccccn3)nn2)c1,1.6,i,-1,0.71,5.3,-3,3.6
CN(c1ccccc1)c1cc(=O)[nH]c(=O)[nH]1,-5.6,i,5,0.69,3.6,-7,-2.8
CCOC(=O)C1=NNC2C(=O)N(CC)C(=O)C12 (centres undefined),-2.7,nt,3,0.73,6.1,16,-0.7

# Just ALR H2O2 inh, E coli growth and FGF22 binding (3 entries from above):
Molecule	ALR H2O2 inh	E coli growth	FGF22 binding
Cc1ccc(NC(=O)C2CCCN(S(=O)(=O)c3ccc4[nH]c(=O)ccc4c3)C2)nc1 (centres undefined)	0	0.68	i
C=CCN1C(=O)C(CC(=O)Nc2ccccc2F)S/C1=N\c1nccs1 (centres undefined)	5	nt	i
COc1cc(-c2nc3cnccn3c2Nc2ccc3c(c2)OCCO3)ccc1O	99*	0.7	nt

# (more compounds)
SMILES,HNF4A DNA FP,FGF22 binding,ALR H2O2 inh,E coli growth,LANA-H2A inh,Beta2AR agonist,UCH37 DUB inh
COC(=O)c1ccc(/C=N/N2CCN(Cc3ccc(Cl)cc3)CC2)cc1,-2.7,i,nt,nt,3.8,-4,nt
O=C(/C=C/c1ccc(F)cc1)Nc1ccc2[nH]c(=O)[nH]c2c1,-0.1,i,0,0.73,3.9,2,-8.9
O=C(NCc1ccccc1)/C(=C/c1ccco1)NC(=O)c1ccco1,8.7,i,93*,0.73,-0.7,-2,3.0
O=C(c1cccnc1Nc1ccc2c(c1)CCC2)N1CCOCC1,-1.7,nt,11,0.71,0.1,10,5.9
CNC(=O)c1ccsc1NC(=O)c1sc2ccccc2c1Cl,24,i,17,nt,2.3,-4,nt
CC1CCCCN1S(=O)(=O)c1ccc([N+](=O)[O-])cc1 (centres undefined),-4.0,i,-31,0.72,0.9,1,0.9
O=C(Nc1ccc2c(c1)C(=O)NC2=O)c1ccccc1,-2.8,i,nt,0.71,-0.3,-16,-155
C#CCN(C)CC/C=C1\c2ccccc2CSc2ccccc21,1.9,nt,-6,0.66,2.6,6,2.4
COc1cc(NS(=O)(=O)c2ccc(NC(=O)c3ccc(C)o3)cc2)nc(OC)n1,4.5,nt,-1,0.67,2.0,-10,2.5
CC(=O)N(CCC1(C(C)C)CCOC(C)(C)C1)Cc1ccco1 (centres undefined),13,nt,2,0.72,-11,-2,1.2
CCOC(=O)C(C)OC(=O)C1=C(C)NC(=O)NC1c1ccc2c(c1)OCO2 (centres undefined),-0.2,i,1,0.62,2.4,0,4.5
COc1ccc2nc3c(c(-c4ccccc4)c2c1)CCC3,-7.0,i,-15,0.7,-7.1,0,-7.5
Cn1c(=S)c2[nH]c(SCC3CCCO3)nc2n(C)c1=O (centres undefined),0.5,i,nt,nt,nt,-9,nt
Cc1sc(NC(=O)CSc2nnc(-c3ccc(F)cc3)o2)c(C#N)c1C,2.6,nt,nt,0.75,-3.4,3,-0.3
Cc1oc2c(c(C)cc3oc(=O)c(CC(=O)N[C@@H](CCCNC(N)=O)C(=O)O)c(C)c32)c1C,0.4,i,4,0.67,0.3,-1,-199
Cn1c(O)c(N=NC(=O)Cn2c(C(F)(F)F)nc3ccccc32)c2ccccc21,3.1,i,-1,0.74,3.3,-15,0.6
Cc1nn(Cc2cccc(Oc3ccccc3)c2)c(C)c1NC(=O)NC12CC3CC(CC(C3)C1)C2,-1.9,nt,-2,0.7,-3.7,-5,-0.3
Cc1cc(C)cc(NC(=O)C2CCCN2C(=O)Oc2ccccc2)c1 (centres undefined),0.2,nt,-4,0.66,3.2,-7,2.1
CCOc1ccc(S(=O)(=O)Nc2ccncc2)c(C)c1C,1.6,i,2,0.67,-0.5,6,2.7
CCOc1ccc(-c2nc(C#N)c(N3CCCCCC3)o2)cc1,1.3,i,nt,0.73,-1.0,-7,-73
COc1ccc(C(C(=O)NC2CCCCC2)N(C(=O)c2sc(C)nc2C)c2ccccc2)cc1 (centres undefined),-4.1,i,-28,0.73,3.1,1,4.3
CC(C)n1c(CN(C)c2ccccc2)nc2ccccc21,-1.8,i,97*,0.61,1.5,-3,4.0
CN(C)/C=N/C(=S)Nc1ccc(Cl)c(Cl)c1,0.4,i,-8,nt,3.5,5,nt
CCCCC(=O)Nc1cccc(NC(=S)NC(C)=O)c1,0.2,nt,1,0.71,3.1,4,5.8

# Four entries from above, arranged by the value under UCH37 DUB inh, falling:
smiles,UCH37 DUB inh
CCCCC(=O)Nc1cccc(NC(=S)NC(C)=O)c1,5.8
CC(C)n1c(CN(C)c2ccccc2)nc2ccccc21,4.0
Cc1nn(Cc2cccc(Oc3ccccc3)c2)c(C)c1NC(=O)NC12CC3CC(CC(C3)C1)C2,-0.3
CCOc1ccc(-c2nc(C#N)c(N3CCCCCC3)o2)cc1,-73

# More records follow:
SMILES,HNF4A DNA FP,FGF22 binding,ALR H2O2 inh,E coli growth,LANA-H2A inh,Beta2AR agonist,UCH37 DUB inh
Cc1cc(-c2csc(NC(=O)c3ccc(S(=O)(=O)N(C)C)cc3)n2)c(C)n1-c1ccccc1,9.1,nt,-2,0.72,3.2,5,-1.8
CCOc1nc(NCCC2=CCCCC2)nc(N2CCOCC2)n1,0.3,nt,-10,0.67,2.6,-7,0.4
CCOc1cc(N2CCOCC2)c(OCC)cc1NC(=O)CN1C(=O)NC(CC(C)C)C1=O (centres undefined),0.1,i,-44,0.62,1.1,-9,0.7
CN(CCc1ccccc1)C(=O)c1ccc(NC(=O)Cc2cccc(NC(=O)C3CCN(C(=O)CCc4ccccc4)CC3)c2)cc1,-1.8,i,nt,0.7,nt,13,0.9
NCCOc1cnn(-c2ccccc2Cl)c(=O)c1Cl,2.5,nt,-6,0.64,1.8,6,1.7
CC(C)(C)c1nnc(NC(=O)Cc2ccccc2[N+](=O)[O-])s1,0.4,nt,-2,0.69,1.6,2,1.7
Cc1ccc(CCNC(=O)CNC(=O)c2cccs2)cc1,3.2,i,-2,0.73,-1.2,-4,2.0
O=C1NCC(c2ccccc2)C1C(=O)N/N=C\c1ccc(-c2cccc(Cl)c2Cl)o1 (centres undefined),-1.5,nt,-6,nt,2.1,-9,nt
CC(=O)c1c(N2CCOCC2)nc(=O)n(-c2ccccc2)c1C,0.6,i,-6,0.67,-0.5,-3,1.4
CN(Cc1ccccc1F)C(=O)CCCNC(=O)c1ccc(Cl)cc1,-0.2,i,-2,0.71,0.1,-2,-2.0
CC(=O)Nc1nc2ccccc2n1CCOc1ccccc1Cl,-3.2,nt,-10,0.7,-1.4,-2,4.5
COc1cc2c(cc1OC)C(c1c(Cl)cccc1Cl)NC(=O)C2 (centres undefined),1.8,i,2,0.68,-3.8,3,-1.5
COC(=O)c1ccc(-n2c(C)nc(=O)c(-c3ccccc3)c2C)cc1,1.1,i,-11,0.68,0.1,6,0.7
c1ccc(CCNc2ccc3c(c2)Cc2ccccc2-3)nc1,-0.4,i,nt,0.69,nt,-10,2.4
C=CCn1c(SCC(=O)N(CC)c2c(N)n(Cc3ccccc3)c(=O)[nH]c2=O)nnc1-c1ccccc1OC,2.6,i,nt,0.64,nt,8,2.1
NS(=O)(=O)c1cccc(NC(=O)CC2(CC(=O)O)CCCC2)c1,-2.6,i,-2,0.66,4.4,-6,4.5
CCCOc1ccc(-c2c(C(=O)N/N=C/c3ccco3)nnn2-c2nonc2N)cc1,-2.1,i,-3,nt,4.8,-4,nt
COc1ccccc1OCCC(=O)NNC(=O)c1ccccc1F,2.9,i,-1,0.65,-12,2,2.4
CCOc1ccc(CCNC(=O)C2CCN(S(=O)(=O)N3CCOCC3)CC2)cc1OCC,0.5,nt,-14,0.73,-0.6,0,4.1
O=C(Nc1ccc(Cl)cc1)Nc1ccc(N2CCCC2)c(S(=O)(=O)Nc2ccccc2Cl)c1,-0.7,nt,-13,0.7,-3.2,17,0.5
COc1ccc(S(=O)(=O)N(CCc2ccccc2)CC(=O)N/N=C/c2ccc3c(c2)OCO3)cc1,1.6,nt,-1,nt,-1.9,-12,nt
CC(C)N1CC(C(=O)Nc2cccc([N+](=O)[O-])c2)CC1=O (centres undefined),1.6,i,-1,0.7,4.0,-5,-2.3
CSCCC(NC(=O)c1ccccc1Cl)C(=O)NCC(c1ccc(F)cc1)N1CCOCC1 (centres undefined),-2.0,i,nt,0.72,nt,-6,1.0
CCOC(=O)C1=C(C)Nc2nnnn2C1c1ccc(OC)c(Br)c1 (centres undefined),0.1,i,9,0.74,-3.7,-11,-0.3
CCN1C(=NCC(C)C)N[C@@H](CCc2ccccc2)[C@H](C(=O)NCC(C)C)[C@H]1C,-2.0,nt,-4,nt,5.0,-3,-1.6

# 2 records drawn at random from those above, as already listed:
SMILES,HNF4A DNA FP,FGF22 binding,ALR H2O2 inh,E coli growth,LANA-H2A inh,Beta2AR agonist,UCH37 DUB inh
CCCOc1ccc(-c2c(C(=O)N/N=C/c3ccco3)nnn2-c2nonc2N)cc1,-2.1,i,-3,nt,4.8,-4,nt
COC(=O)c1ccc(-n2c(C)nc(=O)c(-c3ccccc3)c2C)cc1,1.1,i,-11,0.68,0.1,6,0.7
